AID504770 = growth inhibition of E. coli YBA685, primary screen, V. cholerae RctB inhibitors. E. coli YBA685 rctB-dependent plasmid, OD600 growth, 3 h; active compounds read low. z-score (test concentration not listed). 130,000 compounds, 0.27% hits;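 active = z-score under -2 on both plates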;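 also: wells of about 30 µL received 100 nL stock; score is relative to mean and SD of the test wells; the first replicate is given; strong numbers were not always called active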
CapD inh = Bacillus anthracis CapD inhibitors, primary screen, biochemical, fluorescence intensity; CapD gamma-glutamyltranspeptidase (Bacillus anthracis Ames Ancestor); purified CapD enzyme, fluorescence intensity read-out; active compounds read low; some hits fall short of the stated cut; z-score (no concentration beside the values); 140,000 compounds, 0.23% hits; AID 492967, 2010;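 active = z-score under -4 in either of two replicates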;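 also: stock transfer was 100 nL into about 40 µL; score is relative to mean and spread of the plate; one replicate is shown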
An asterisk follows results filed as active; . = no result given.

Under each structure – CapD inh	AID504770
- C=CCNC(=O)c1ccccc1NC(=O)c1ccc(OC)cc1
  1.3	1.8
- O=C(NN=C1CCCCCCC1)c1ccc(CN2CCOCC2)cc1
  0.27	-0.95
- NC(N)=NC(N)=Nc1ccc(Cl)cc1C(=O)c1ccccc1
  73	.
- N#CCCC(=O)c1ccco1
  .	0
- O=C(CSC1=NCCS1)Nc1nc(-c2ccccc2)cs1
  -0.45	0.05
- COC(=O)c1ccc(NC(=O)C(C)Sc2ncn(-c3ccccc3)n2)cc1 (stereo not given)
  0.075	-0.75
- CC(C)c1nc2cc(N)ccc2n1C
  .	-0.15
- O=c1c2c(Br)c3c(=O)n(CCO)c(=O)c3c(Br)c2c(=O)n1CCO
  0.37	0.7
- CCOc1ccc2nc(Nc3nc4c(c(=O)[nH]3)CCCC4)nc(C)c2c1
  .	-0.05
- CCCOc1ccc(C(=O)NCC2(c3ccc(OC)cc3)CCOCC2)cc1
  9.4	-0.3
- CCC(C)(C(=O)NC1CCCC1)N(C(=O)c1ccccn1)c1ccccc1 (stereo not given)
  -1.1	1.8
- O=C(Nc1ccc(-c2nc3ccccc3o2)cc1)c1ccc(Br)o1
  32	-0.8
- CS(=O)(=O)N1CCN(c2ccccc2NC(=O)c2cccs2)CC1
  -0.32	.
- Cn1nc(N2CCCCCC2)c(=O)n(C)c1=O
  .	1.2
- CCn1c(=Nc2ccc(N3CCOCC3)cc2)ccc2ccccc21
  .	-0.1
- CCn1c(SCCCC(=O)c2ccc(Br)cc2)nnc1-c1cccs1
  .	1.7
- O=c1[nH]c(SCCOc2ccccc2)nc2ccccc12
  3.9	0.6
- COc1ccc(NC(=O)c2cc3cc(OC)ccc3oc2=Nc2ccc(C(=O)O)cc2)cc1
  0.17	.
- CCOC(=O)c1c(-c2ccccc2)oc2ccc(OCC(O)CN(C)C)cc12 (stereo not given)
  .	0.05
- Cc1cc(C)c2cccc(N=CC3=C(O)CC(C)(C)CC3=O)c2n1
  0.055	-0.55
- Cc1ccc(CSc2nc3c(c(Oc4ccc(Cl)cc4)n2)CCCC3)cc1
  -0.17	.
- CCOc1ccc(NC(=O)c2cc3sccc3n2Cc2ccc(C)cc2)cc1
  0.61	1.5
- CN(CC(=O)Nc1ncc(Cl)cc1Cl)Cc1ccc(Cl)cc1
  .	-0.25
- CCOCCCn1c(SCC(=O)NC2(C#N)CCCCC2)nc2ccccc2c1=O
  .	0.6
- O=C1CCC(C(=O)OCc2ccccc2C(F)(F)F)=NN1
  .	-0.05
- Cc1cc(C(=O)N/N=C2\CC(c3ccccc3)Oc3ccccc32)c(C)o1 (stereo not given)
  .	-0.35
- COc1ccccc1C1Nc2cccc3cccc(c23)N1
  33	.
- O=C(O)CSCC(=O)N1CCN(c2ccc(F)cc2)CC1
  -0.17	-0.2
- O=c1oc2ccc(Cl)cc2n1CN1CCCCC1
  -0.39	1.5
- CCc1ccc2[nH]c(=O)c(CN(CCN3CCCC3)C(=O)NCc3ccccc3)cc2c1
  .	-0.15
- CC(Sc1nnc(Nc2ccccc2F)s1)C(=O)NC1(C#N)CCCCC1 (stereo not given)
  .	0.9
- O=C(CNC(=O)C1CCCCC1)NCc1ccco1
  0.42	-0.05
- COc1cc(NC(=O)CCN2C(=O)c3ccccc3C2=O)c(OC)cc1Cl
  -0.14	.
- O=C1c2ccccc2CC1Sc1nnc(-c2ccco2)c(-c2ccco2)n1 (stereo not given)
  .	0.9
- CC(C)(C)c1ccc(NC(=O)C2CC2)c(Cl)c1
  -0.05	0.15
- COc1ccc(-n2cnc3cc(N=Cc4nc5ccccc5n4C)ccc32)cc1
  -0.46	0
- CC(=O)Oc1ccc(N(C(C)=O)S(=O)(=O)c2ccc3ccccc3c2)cc1
  -0.08	0.3
- Cc1c(F)cccc1NC(=O)OCc1ccccc1
  0.23	-0.9
- Cc1ccc(C(=O)N/N=C/c2cccc3c2OCO3)s1
  1.3	.
- COc1cccc2sc(Nc3sc4c(c3C(N)=O)CCCC4)nc12
  -2.6	-0.35
- Cc1cc(SCCOc2ccc(Cl)cc2Cl)nc(N)n1
  0.17	-0.5
- O=C(Cn1nnc2ccccc21)OCc1ccccc1
  .	-0.15
- COc1ccc(C2CC(=O)C3=C(C2)Nc2ccccc2N(C(=O)C(C)C)C3c2cccc(OC)c2)cc1 (stereo not given)
  2.9	.
- CCCCC(C(=O)Nc1cccc([N+](=O)[O-])c1)N1C(=O)C2C3c4ccccc4C(c4ccccc43)C2C1=O (stereo not given)
  -0.035	.
- Nc1nc(SCC(=O)OC2CCCC2)n[nH]1
  -0.14	-0.8
- COC(=O)CCc1nc2c(ccc3ccccc32)s1
  -1	1.8
- COc1ccccc1N1C(=O)CS/C1=N\N=C\c1ccccc1O
  -1.5	.
- CN(C)S(=O)(=O)c1ccc(C(=O)OCC(=O)N2CCCCC2)cc1
  .	0.75
- O=C(Oc1ccc(-c2nccc(-c3cccs3)n2)cc1)C1CCCCC1
  0.4	.
- Cc1onc(-c2ccccc2)c1NC(=O)O/N=C(\N)c1ccc(Cl)cc1
  -0.77	.

(listing goes on)
Under each structure – CapD inh	AID504770
- O=C(CSc1nnc(-c2ccccc2)o1)N(CC1CCCO1)c1nc2ccccc2s1 (stereo not given)
  .	-0.35
- CCC1CN(S(=O)(=O)c2cc(-c3onc(C)c3C)ccc2OC)c2cc(Cl)ccc2O1 (stereo not given)
  0.18	0.7
- Cc1noc(C)c1S(=O)(=O)N(C)c1ccc(Br)cc1
  0.11	-0.9
- Cc1ccc(N/C(SCc2cccc([N+](=O)[O-])c2)=C(/C#N)C(N)=O)cc1C
  0.28	.
- CCCNC(=O)c1cnn2c1NC(c1cccc(OC)c1)CC2C(F)(F)F (stereo not given)
  -0.015	-1.1
- O=C1CC2(CCCC2)C(=O)N1c1ccc(S(=O)(=O)N2CCc3ccccc3C2)cc1Cl
  -0.36	-0.55
- Cc1ccc(S(=O)(=O)NCC(=O)OCc2ccccc2)cc1
  -0.28	.
- CCOc1cc(CNc2ccc(OC)cc2)ccc1OCC(=O)NC(C)(C)C
  -0.44	-0.4
- Cc1nn(-c2ccccc2)c(C)c1CN1CCC(NC(=O)OCCc2ccccc2F)C1 (stereo not given)
  -0.15	.
- CCCCCNC(=O)c1cc(S(=O)(=O)N2CCOCC2)ccc1SCc1cccc(OC)c1OC
  -0.6	.
- O=C(CN1C(=O)CSC1=O)Nc1nccs1
  .	0.15
- CN1CCCN(CC(O)COCc2cccs2)CC1 (stereo not given)
  .	0.4
- O=C(O)c1ccc(C2CCCCC2)cc1
  .	-0.6
- COc1ccc(SCC(O)CNCc2ccc(Cl)cc2)cc1 (stereo not given)
  -0.12	-1.1
- Cc1csc(SCc2cc(=O)c(OC(=O)c3ccco3)co2)n1
  .	0.4
- N#Cc1ccccc1Cn1c(=O)n(Cc2ccccc2)c(=O)c2ccccc21
  0.97	-0.65
- O=C1OC(OC2CCCCC2)(c2ccccc2)c2ccccc21 (stereo not given)
  -0.15	.
- NC(=O)C1CCN(Cc2cc(=O)oc3cc(O)ccc23)CC1
  .	-0.5
- COc1cccc(C2(O)CC(C(F)(F)F)=NN2C(=O)c2cccnc2)c1 (stereo not given)
  -0.095	.
- CC(=O)Nc1ccc(NC(=O)C(C)OC(=O)C2CC2)cc1 (stereo not given)
  -0.32	-1.4

At a glance, part of the list above.
Under each structure – CapD inh	AID504770
- O=C(O)c1ccc(C2CCCCC2)cc1
  .	-0.6
- COc1ccc(SCC(O)CNCc2ccc(Cl)cc2)cc1 (stereo not given)
  -0.12	-1.1
- Cc1csc(SCc2cc(=O)c(OC(=O)c3ccco3)co2)n1
  .	0.4

Following part:
Under each structure – CapD inh	AID504770
- CCOC(=O)Cn1c(Sc2nc3c(c(=O)n(C)c(=O)n3C)n2C)nc2ccccc21
  -0.075	.
- O=C1NC2(O)C(=O)c3ccccc3C2(O)N1c1ccccc1 (stereo not given)
  -0.3	.
- CCC(C)C(NC(N)=O)C(=O)NC1CCC(C)CC1 (stereo not given)
  .	0.05
- CN(C)/N=C/c1ccc(N2CCOCC2)cc1
  .	-2.6
- CCC(C(=O)O)N1C(=O)/C(=C/c2ccccc2)SC1=S (stereo not given)
  -2.1	-1.4
- COC(=O)c1sc2nc3c(c(-c4ccc(Cl)cc4)c2c1N)CCC3
  0.41	-0.1
- O=C(COc1ccc(F)c(Cl)c1)n1cccn1
  -0.56	-0.8
- CCCCCCCCCCCC1=C(O)C(=O)C=C(O)C1=O
  .	0.05
- Cc1cc(C)nc(NC(=NCc2ccc(Cl)cc2)NC(=O)C(C)N2C(=O)c3ccccc3C2=O)n1 (stereo not given)
  -0.9	-0.35
- CC(=O)N1CCN(CC(O)COc2ccc3oc4ccccc4c3c2)CC1 (stereo not given)
  .	0.15

Complete entries, quoted from the list. Order of values: CapD inh | AID504770
C=CCNC(=O)c1ccccc1NC(=O)c1ccc(OC)cc1 in the list: 1.3 | 1.8
N#Cc1ccccc1Cn1c(=O)n(Cc2ccccc2)c(=O)c2ccccc21 in the list: 0.97 | -0.65
COc1cccc(C2(O)CC(C(F)(F)F)=NN2C(=O)c2cccnc2)c1 (stereo not given) in the list: -0.095 | .
O=C(O)CSCC(=O)N1CCN(c2ccc(F)cc2)CC1 in the list: -0.17 | -0.2

Some values from the results shown.
`CCCCCCCCCCCC1=C(O)C(=O)C=C(O)C1=O` in AID504770 = 0.05
`O=C(COc1ccc(F)c(Cl)c1)n1cccn1` in CapD inh = -0.56

More structures follow:
Under each structure – CapD inh	AID504770
- Cc1ccc(CNC(=O)CSc2nc(NCC3CCCO3)c3ccccc3n2)cc1 (stereo not given)
  2.3	.
- O=C(NC1CCCC1)C(c1ccccc1)N(Cc1cccs1)C(=O)Cn1nnc2ccccc21 (stereo not given)
  .	0.4
- Cc1c(Cl)cccc1NC(=O)c1sc2nc3c(c(-c4ccco4)c2c1N)CCC3
  -0.57	.
- CCCCn1cc(C2CC(=O)N(c3ccc(Br)cc3)C2=O)c2ccccc21 (stereo not given)
  57	0.4
- O=C1CCN(C(=O)c2ccccc2)CC1
  0.005	.
- COc1ccc(CCNC(=O)CSc2nc3ccccc3o2)cc1
  .	-0.85
- O=C(NC1CCN(Cc2ccccc2)CC1)[C@H](Cc1ccccc1)N1Cc2ccccc2C1=O
  -0.3	1.4
- O=C(c1ccccc1)N1c2ccccc2-c2ccccc2S1(=O)=O
  1.3	.
- COCCCNc1nc2ccccc2n(CC(=O)N2CCCCCC2)c1=O
  .	-0.65
- CCc1ccccc1OCC(=O)O
  -0.89	-0.05
- CC(C)c1ccc(NC(=O)CSC2=Nc3ccccc3C3=NC(CC(=O)N4CCN(c5ccccc5)CC4)C(=O)N23)cc1 (stereo not given)
  0.15	0.05
- O=c1[nH]c(-c2ccccc2)nn1-c1ccc(Br)cc1Br
  .	-0.2
- N#C/C(=C/c1cn(CCC(N)=O)c2ccccc12)c1ccc(C#N)cc1
  -1.9	-0.55
- N#CCSc1nc2ccccc2c(=O)n1CCC(=O)NC1CCCCC1
  -0.29	0.1
- CCN1CCN(Cc2ccc(NC(=O)Cc3nc(-c4ccc(OC)cc4)no3)cc2)CC1
  0.07	-0.55
- Cc1cc(C(=O)CSc2ccc(F)cc2)cc(C)c1OC(=S)N(C)C
  -0.055	.
- CCCc1cc(=O)[nH]c(SCC(=O)N2c3ccccc3NC(=O)C2(C)C)n1
  .	1.4
- CN(C)c1ccc(/C=N/NC(=O)c2nnn(-c3nonc3N)c2CN2CCCCCC2)cc1
  -0.41	.
- CCOC(=O)c1ccc(-n2c(=S)sc3c(=O)n(CC4CCCO4)c(SCC#N)nc32)cc1 (stereo not given)
  0.04	.
- CCOc1ccc(-n2c(SCC(=O)N3CCC(C)CC3)nc3n[nH]c(C)c3c2=N)cc1
  0.45	-1.3
- COC(=O)c1ccc(C(=O)NCCc2c(C)[nH]c3ccc(OCc4ccccc4)cc23)cc1
  0.48	.
- CC(C)C12CN3CC(C(C)C)(CN(C1)C3c1cccc([N+](=O)[O-])c1)C2=O (stereo not given)
  -0.02	.
- O=C(N1CCOCC1)C12CC3CC(CC(C3)C1)C2
  2.3	-0.9
- C=C(C)C(C)(C#CCN1CCCC1)OC(C)=O (stereo not given)
  -0.025	-0.75
- CCOC(=O)c1cc(C#N)c(N2CCN(S(=O)(=O)c3ccccc3)CC2)nc1C(F)(F)F
  1.8	0.9
- CCOC(=O)c1ccc(NC(=O)CCN2C(=O)/C(=C/c3ccccc3OC)SC2=S)cc1
  -0.95	.
- CCOC(=O)CN1C(=O)C2(C(C(=O)OCC)=C(N)OC3=C2C(=O)CC(C)(C)C3)c2ccccc21 (stereo not given)
  3.3	0.2
- Cc1ccc(N2C(=O)C3C(c4ccccc4Cl)OC4(C(=O)c5ccccc5C4=O)C3C2=O)cc1C (stereo not given)
  1.3	.
- COc1cccc(C(=O)CC(C(=O)O)c2ccc(F)cc2)c1 (stereo not given)
  -0.76	0.4
- S=C(NCCn1cc(Br)cn1)Nc1ccc2c(c1)OCO2
  -0.14	-0.8
- CN(C(=O)CSc1nncn2c1cc1sccc12)c1ccccc1
  0.33	-0.5
- Cc1nc(NCc2ccco2)nc2c1C(=O)CC(C)C2 (stereo not given)
  -0.075	0.1
- O=C1OCC(c2ccc(Cl)cc2)=C1c1cccs1
  .	0.25
- Nc1nc2ccccc2n1Cc1ccc(Cl)c(Cl)c1
  -0.15	-4.2*
- CCNc1nc(NCC)nc(C(=O)OCCO)n1
  -0.035	-0.45
- Cc1ccc(C(C)C)cc1OP1(=O)COc2ccccc2OC1
  -1.2	0.35
